# TRPML1 ag – qHTS for Agonists of the Human Mucolipin Transient Receptor Potential 1 (TRPML1). hit rate 0.12% among 410,000. activation, % (test concentration not listed). TRPML1-expressing cells, Ca2+ dye fluorescence, FDSS; host cell line not named in the record; reference of the full effect not given here. Mucolipin-1 (Homo sapiens), Q9GZU1. AID 624414, 2012; in the data active = activation above about 50%; inconclusive = about 30% to 50%; inactive = below about 30%; also: 0% is about no effect; the text of the record puts the active cut at 80%
# Target sequence (Q9GZU1 whole entry, looked up): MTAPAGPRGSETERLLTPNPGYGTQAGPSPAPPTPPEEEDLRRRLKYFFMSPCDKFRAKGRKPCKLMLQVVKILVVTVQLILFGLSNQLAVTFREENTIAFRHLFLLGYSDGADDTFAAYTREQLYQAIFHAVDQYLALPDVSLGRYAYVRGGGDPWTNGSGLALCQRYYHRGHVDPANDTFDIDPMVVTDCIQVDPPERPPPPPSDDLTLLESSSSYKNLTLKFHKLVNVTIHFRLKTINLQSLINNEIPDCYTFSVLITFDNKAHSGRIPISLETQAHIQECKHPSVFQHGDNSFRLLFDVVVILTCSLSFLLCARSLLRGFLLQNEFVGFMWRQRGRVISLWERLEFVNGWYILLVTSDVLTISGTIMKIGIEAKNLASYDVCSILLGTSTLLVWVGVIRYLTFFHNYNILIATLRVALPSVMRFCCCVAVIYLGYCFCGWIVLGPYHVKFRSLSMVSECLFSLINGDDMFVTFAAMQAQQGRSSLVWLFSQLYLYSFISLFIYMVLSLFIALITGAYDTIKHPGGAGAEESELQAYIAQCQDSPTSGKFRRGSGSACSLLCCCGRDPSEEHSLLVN
#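 Tetracycline-induced TRPML1-DL cells are seeded and incubated overnight before loading with a no-wash Ca2+ dye and quencher. Agonist activity is taken from the 110 s fluorescence read following compound pin-transfer on an FDSS, before EC80 54-4 challenge.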
# TRPML1 inh – qHTS for Inhibitors of the Human Mucolipin Transient Receptor Potential 1 (TRPML1); TRPML1-inducible cells, Ca2+ dye fluorescence, FDSS; active compounds read low; inhibition of EC80 agonist-evoked calcium signal; Mucolipin-1 (Homo sapiens), Q9GZU1; hit rate 0.02% among 390,000; activity change, negative = inhibition, % (test concentration not listed); in the data active means activity change below about -50%; inconclusive means about -30% to -50%; inactive means above about -30%;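 also: stimulus is agonist 54-4 at its EC80 concentration; % is scaled to controls: 0 for no effect and ±100 for the full control effect; compound concentration not given in the record; the text of the record puts the active cut at -80%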
#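 Tet-induced TRPML1-DL cells loaded with Ca8 no-wash calcium dye were read kinetically on FDSS. Compound addition was followed by EC80 agonist 54-4 (4 uM final); inhibition was read over 110 s.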
# Starred values were filed as active, the others as inactive; ? = inconclusive. Some of the compounds tested, so the mix of outcomes need not match the whole.
SMILES,TRPML1 ag,TRPML1 inh
COc1cccc(-c2nc(CS(=O)(=O)CC(=O)Nc3c(C)cc(C)cc3C)c(C)o2)c1,0.6,-11
COc1cccc(CNC(=O)C(C)n2c(=O)cc(-c3ccccc3)c3c(C)nn(C)c32)c1 (stereo not given),1.0,-8
COC(=O)C1=C(c2ccccc2)c2ccccc2S(=O)(=O)N1CC(=O)Nc1cc(C)ccc1C,1.6,12
CCOc1ccc(NC(=O)Cn2cc(C(=O)c3ccc(C)cc3)c(=O)c3cc4c(cc32)OCO4)cc1,-0.4,1
CC(C)(C)OC(=O)N1CCC(c2c(C(=O)N3CCCCC3)cnn2-c2ccccc2Cl)CC1,1.9,-3
CCSc1nnc2c(n1)OC(c1ccc(OCC(=O)O)cc1)Nc1ccccc1-2 (stereo not given),0.9,1
Cc1ccc(Sc2ccc(N3CCC(C(=O)Nc4ccc(Cl)cc4)CC3)nn2)cc1,-0.5,15
O=C(CSc1nnc(-c2ccc([N+](=O)[O-])cc2)o1)Nc1ccccc1,0.9,-8
CCCOc1cccc(C2c3c(oc4cc(C)c(C)cc4c3=O)C(=O)N2CCCN2CCOCC2)c1 (stereo not given),0.4,-5
O=C(Cn1cc(S(=O)(=O)c2ccccc2)c(=O)c2cc(Cl)ccc21)Nc1ccc2c(c1)OCO2,0.5,30
CCN1CCOC(=O)C1CC(=O)Nc1cccc(OC)c1 (stereo not given),2.3,9
Cc1c(CNC2CCC(C)CC2)c(C(=O)O)c(C)n1Cc1ccccc1F (stereo not given),-0.7,8
C=CCc1ccccc1OCC(O)CN1CCN(c2ccccc2)CC1 (stereo not given),-0.3,7
Cc1ccc(Cl)cc1NC(=O)C(=O)NCC(c1cccnc1)N1CCc2ccccc21 (stereo not given),2.2,5
Cc1ccc(NC(=O)C2CCCN(C(=O)c3cnn(-c4ccccc4)c3-n3cccc3)C2)cc1 (stereo not given),-0.3,18
CCN(CC)S(=O)(=O)c1ccc(NC(=O)[C@H](CSCc2ccccc2)N2Cc3ccccc3C2=O)cc1,0.9,45
CCn1c(CNC(=O)C23CC4CC(CC(C4)C2)C3)nnc1SCC(=O)Nc1ccc(C)cc1,3.8,29
Cc1ccc(CCNC(=O)c2ccc(CS(=O)(=O)Cc3ccc(Cl)cc3)o2)cc1,1.7,-5
FC(F)(F)c1cc(-c2ccccc2)nc2cc(-c3ccccc3)nn12,-0.8,-5
Cc1ccc(-c2nc(C(=O)Nc3cccc(C#N)c3)c3n2CCCCC3)cc1,3.6,-22
CC1CCC(Nc2nc3c(-c4cccc(C(F)(F)F)c4)nnn3c3ccccc23)CC1 (stereo not given),-0.6,9
Cc1c(-c2nc(-c3ccc4c(c3)OCO4)no2)nnn1-c1ccc(Br)cc1F,0.0,1
CCOC(=O)c1cnc2ccc(OCC)cc2c1Nc1cc(Cl)c(OC)cc1OC,-0.8,32
COc1ccc(-c2nc3cc(NC(=O)c4cc5ccccc5o4)ccc3o2)cc1,-1.1,25
CCOc1ccc(NC(=O)CCS(=O)(=O)c2ccc3nc(C)sc3c2)cc1,0.0,9

# The last 3 compounds of the section above are carried over, then new ones follow:
SMILES,TRPML1 ag,TRPML1 inh
CCOC(=O)c1cnc2ccc(OCC)cc2c1Nc1cc(Cl)c(OC)cc1OC,-0.8,32
COc1ccc(-c2nc3cc(NC(=O)c4cc5ccccc5o4)ccc3o2)cc1,-1.1,25
CCOc1ccc(NC(=O)CCS(=O)(=O)c2ccc3nc(C)sc3c2)cc1,0.0,9
COc1ccc(Cl)cc1NC(=O)NCCc1c(C)nn(C)c1C,-0.4,28
CCCCn1cc2c(c1-c1ccc(Br)cc1)c(=O)n(C)c(=O)n2C,1.9,39
CCOCCc1nn2c(=O)cc(COC(=O)c3cccs3)nc2s1,0.4,-23
CCOc1ccc(NC(=O)CSc2ncc3c(n2)-c2ccccc2N(Cc2ccccc2C)S3(=O)=O)cc1,1.0,15
CNC(=O)c1c(NC(=O)Cc2coc3ccc(C)cc23)sc2c1CCCC2,1.0,2
O=C(CSc1nncn2c1cc1occc12)Nc1ccc(F)c(Cl)c1,-0.2,5
CCc1ccc(NC(=O)Cn2c(C(=O)OC)cc3oc(C)cc32)cc1,3.7,-11
COc1cccc(NC(=O)Cn2c(=O)n(-c3ccccc3)c(=O)c3c2c2cc(OC)ccc2n3C)c1,1.6,-5
CCc1cccc(NC(=O)CCS(=O)(=O)c2ccc(C)cc2)c1,2.1,?
COc1ccc(CCNC(=O)c2ccc(Cn3c(=O)c4ccccc4n(CC(=O)C(C)(C)C)c3=O)cc2)cc1OC,0.8,7
Cc1cccc(-c2nnc(SCc3cc(=O)c4cccc(Cl)c4[nH]3)n2C)c1,5.4,16
COC(=O)C1CCN(CC(=O)Nc2cc(C)c3c(=O)oc4ccccc4c3n2)CC1,-1.0,-6
Cc1ccc(Nc2sc(C(=O)c3ccccc3)c(N)c2S(=O)(=O)c2ccccc2)cc1Cl,5.5,6
CCOc1cc(C2c3c(oc4ccccc4c3=O)C(=O)N2Cc2ccccc2Cl)ccc1O (stereo not given),0.8,0
CCCCCC/C=C/c1ccc(OC)c(C2C3C=CCC(C)C3C(=O)N2Cc2ccccc2)c1 (stereo not given),0.1,6
CCOc1ccc(C2CC(=O)Nc3cc4c(cc32)OCO4)cc1OC (stereo not given),-0.2,-14
COC(=O)c1sccc1S(=O)(=O)N(CC(=O)Nc1c(C)cccc1C)c1ccc(C)c(C)c1,3.6,32
Cn1c(CN2CCOCC2)nc2cc(NC(=O)c3ccccc3[N+](=O)[O-])ccc21,-0.1,3
O=C(CSc1ccccc1)N1CCc2c([nH]c3ccccc23)C1c1ccc(F)cc1 (stereo not given),0.9,2
Cc1cccc(NC(=O)CSc2nnc3[nH]c(=O)cc(-c4ccccc4)n23)c1C,1.0,4
CC(C)(C)n1cnc2cc(NCc3ccccc3Cl)ccc21,-1.4,-15
Cc1ccc(NC(=O)CSc2nc3ccccc3c3nc(CCn4c(C)nc5ccccc54)nn23)cc1F,0.3,-4
CCN1C(=O)c2ccccc2S(=O)c2ccc(C(=O)NCc3ccc(Cl)cc3)cc21 (stereo not given),-0.3,-26
CCOc1ccccc1N(CC)C(=O)c1noc2c1COc1ccc(C)cc1-2,1.2,-9
Cc1ccc(C2c3[nH]c4ccccc4c3CCN2C(=O)CSCc2ccc(F)cc2)cc1 (stereo not given),-0.7,-7
# Further structures
SMILES,TRPML1 ag,TRPML1 inh
COC(=O)c1ccccc1NC(=O)CCCn1nc(C)c2sc3ccccc3c2c1=O,-0.3,6
Cc1cc(C)cc(NC(=O)CCn2cnc3ccccc3c2=O)c1,-0.8,-11
CCCc1ccc(OCC(=O)Nc2sc3c(c2C(=O)OC)CCCCC3)cc1,0.1,39
CC(C)(C)C(=O)OC1=CN(Cc2ccccc2)S(=O)(=O)c2ccccc21,2.2,34
Cc1cc(C)c2c(C)c(C(=O)N3CCC(c4nc5ccccc5s4)CC3)oc2c1,-0.2,7
CCCCN(CC)C(=O)CSc1c2c(nc3ccc(Cl)cc13)CCCC2,1.7,0
COc1ccc(CNc2ncnc3c2nc2n3CCCC2)cc1,2.8,2
CCC(C)NC(=O)c1ccc(Cn2c(=O)c3cccn3c3cccnc32)cc1 (stereo not given),-0.6,-14
Cc1ccc(Cl)cc1-n1c(=O)c2sc3ccccc3c2n(Cc2ccccc2)c1=O,-0.3,-28
CN(CC(=O)Nc1ccc(F)cc1F)S(=O)(=O)c1cccc2nsnc12,-0.4,18
COc1ccccc1NC(=O)c1cc2c(n(-c3ccc(C)cc3)c1=O)CC(C)(C)CC2=O,-0.4,11
CCCCN(CCCNC(=O)c1ccc(Sc2ccc(Cl)cc2)c(NC(C)=O)c1)c1ccccc1,-0.6,1
N#C/C(=C\c1ccc(-c2ccc(C(=O)O)cc2)o1)C(=O)Nc1ccccc1C(=O)O,0.3,11
CCCCc1ccc(NS(=O)(=O)c2ccc(N3CCCCS3(=O)=O)cc2)cc1,-0.5,-15
CCc1cccc(NC(=O)Cn2nc(-c3ccc(OC)cc3)ccc2=O)c1,5.4,12
Cc1ccc(NC(=O)CCC(=O)N2Cc3ccccc3Oc3ncccc32)cc1,-0.2,4
CSc1nc2c([nH]c3ccccc32)c(=O)n1-c1ccc(F)cc1,0.4,4
CCOc1ccc(-c2c(C)nn3c(C)c(C(=O)NCc4ccc(Cl)cc4)cnc23)cc1OCC,2.6,-4
Cc1ccc(CSCc2ccc(C(=O)NCCc3ccc(Cl)cc3)o2)cc1,2.1,16
Cn1c(=O)oc2cc(S(=O)(=O)N3CCC(C(=O)N4CCN(c5ccc(Cl)cc5)CC4)CC3)ccc21,-0.6,-7
CCc1ccc(NC(=O)CSc2nc(=O)n(Cc3cccnc3)c3c2CCC3)cc1,-0.1,1
Cc1ccc(CN2CCSc3ccc(C(=O)NCc4ccc(OC(C)C)cc4)cc32)cc1,0.6,-6
COc1cc(Cl)c(C)cc1NC(=O)Cn1cc(S(=O)(=O)N2CCC(C)CC2)c2ccccc2c1=O,0.6,2
CN1CCN(c2oc(/C=C/c3ccc(F)cc3)nc2C#N)CC1,0.8,32
CCCCN(C)CC(O)Cn1cc(/C=C/C(=O)c2ccc(OC)c(OC)c2)c2ccccc21 (stereo not given),1.9,89
# Next section
SMILES,TRPML1 ag,TRPML1 inh
COc1cccc(CNC(=O)CN2C(=O)CSc3c2c(C)nn3-c2ccccc2)c1OC,-0.9,-15
CC(C)(C)c1ccc(C(=O)Nc2c(C(=O)c3ccc(F)cc3)oc3ccccc23)cc1,3.7,33
Cc1c2cnn(-c3ccccc3)c(=O)c2c(C)n1CC(=O)NCc1ccccc1Br,-0.2,-9
O=C(Nc1cccc(Cl)c1)c1cc(-c2ccccc2)on1,0.0,-21
Cc1nc2c(C(=O)NCc3ccccc3Cl)cnn2c(C)c1Cc1ccccc1,3.2,25
Cc1cc(C)c2c(=O)nc(SCc3ccccc3C)n(C3CC3)c2n1,-0.2,-12
COc1ccc(CC(=O)NCc2ccc3c(c2)CCN3C(=O)c2ccc(Cl)cc2)cc1OC,3.5,-3
COc1ccccc1CNC(=O)C1CCN(S(=O)(=O)c2cn(C)cn2)CC1,2.0,-18
Cc1ccc(Cl)cc1N1CCN(C(=O)c2noc3c2CCCC3)CC1,1.1,-5
CCc1ccccc1Nc1ncnc2c1cnn2-c1ccc(C)cc1C,0.9,-2
CCc1ccccc1NC(=O)c1sc(-n2nc(C)c(Cc3ccc4c(c3)OCO4)c2C)nc1C,0.7,12
Cc1c(C(=O)Nc2c(F)cccc2F)sc2ncn(Cc3ccccc3F)c(=O)c12,2.0,24
COc1ccc(NS(=O)(=O)c2c(C)nc3scc(C)n3c2=O)cc1,0.2,-4
COc1ccc(Nc2ncc3c(n2)CCN(Cc2cccc(F)c2F)C3)c(OC)c1,1.0,-6
CC(C)CC(CSc1ccc(Br)cc1)N1CCN(C)CCC1=O (stereo not given),1.8,-14
COc1ccc(C(=O)c2oc3ccccc3c2NC(=O)COc2cccc(C)c2)cc1,-0.1,0
O=C(Nc1ccc(F)cc1Cl)C1CCN(c2ncnc3c2nc2n3CCCCC2)CC1,-0.5,9
COc1ccc(C)cc1NC(=O)Cn1c(=O)ccc2cc(S(=O)(=O)N3CCCC3)ccc21,0.7,5
COc1cccc(C(=O)N2CCC(N3CCN(Cc4ccc(F)cc4)C(=O)C3=O)CC2)c1,-0.8,-16
Cc1ccc2cccc(NC(=O)C(C)Oc3ccc(C)c(C)c3)c2n1 (stereo not given),3.0,-2
CCCCOc1cccc(C(=O)Nc2cc3nn(-c4ccc(F)cc4)nc3cc2C)c1,-0.7,15
COC(=O)c1c(C)sc(-c2c(-c3ccc(F)cc3)[nH]c3[nH]c(=O)[nH]c(=O)c23)c1O,9.2,-2
CCc1ccc(-c2[nH]nc3nc(-c4ccc(OC)cc4)cc(C(=O)NCCCOC)c23)cc1,-0.6,-5
Cn1c(=O)c2c(n3c4ccccc4nc13)NC(=O)CC2c1cccc(Cl)c1 (stereo not given),-1.0,9
O=C1C[C@H](c2ccc3ccccc3c2)N1S(=O)(=O)c1ccccc1[N+](=O)[O-],0.3,32
O=C(Cn1c2ncccc2c(=O)n1-c1ccccc1)NCc1ccccc1Cl,2.1,34
CCc1ccc(NC(=O)CCn2nc(-c3ccccc3OC)c3c(C)cc(C)nc32)cc1,1.9,-4
O=C(NCc1cccc(F)c1)c1ccc(CS(=O)c2ccccc2Cl)o1 (stereo not given),-0.3,-12

# Pulled one by one from the entries so far, 6 records:
SMILES,TRPML1 ag,TRPML1 inh
CC(C)(C)c1ccc(C(=O)Nc2c(C(=O)c3ccc(F)cc3)oc3ccccc23)cc1,3.7,33
CCCCOc1cccc(C(=O)Nc2cc3nn(-c4ccc(F)cc4)nc3cc2C)c1,-0.7,15
CCc1ccccc1NC(=O)c1sc(-n2nc(C)c(Cc3ccc4c(c3)OCO4)c2C)nc1C,0.7,12
Cc1ccc(Cl)cc1N1CCN(C(=O)c2noc3c2CCCC3)CC1,1.1,-5
Cc1c2cnn(-c3ccccc3)c(=O)c2c(C)n1CC(=O)NCc1ccccc1Br,-0.2,-9
COc1ccc(C(=O)c2oc3ccccc3c2NC(=O)COc2cccc(C)c2)cc1,-0.1,0
